HSD17B inh = blocks hydroxysteroid 17-beta dehydrogenase activity; AID 893; recombinant HSD17B10, NADH fluorescence kinetic; many of its hits are not listed in these tables; Q99714; Potency, µM (doses to about 57.1 µM), inactives show at the top dose activity change, negative = inhibition, most hits filed as inhibitors; 75,000 compounds, 7.6% hits; active = well fitted inhibition curve with a large enough effect; inconclusive = small, poorly fitted or top-dose-only effect; inactive = no such curve, though single readings can be large or run the other way;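 also: the protocol describes HADH2 (HSD17B10) and not the HSD17B4 of the title; nearly all actives have a fitted effect of over 70% in size; most hits overshoot -100% by far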
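Enzyme plus compound, 15 min room temperature; substrate mix added (NAD+ 1 mM, beta-hydroxybutyryl-CoA 90 uM final); plates read kinetically for NADH fluorescence. HADH2 was His-tagged, E. coli-derived, 20 nM.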
Starred values were filed as active, the others as inactive; ? = inconclusive; [ ] = remark or other dose. % is scaled to controls: 0 for no effect and ±100 for the full control effect; potency is read from the fitted curve at half-maximal effect. A portion of the library (hit frequency here may not be typical).

A first look:
SMILES | HSD17B inh
COCCn1c(NCc2ccccc2)nc2c1c(=O)[nH]c(=O)n2C | -1%
CCOc1ccc(NC(=O)c2ccc(F)c(S(=O)(=O)N3CCN(c4ccccn4)CC3)c2)cc1 | 0%
CCCCc1ccc(S(=O)(=O)NCCc2ccncc2)cc1 | -1%
CCCS(=O)(=O)N1CCC(C(=O)c2cccc(C(F)(F)F)c2)CC1 | -4%
Cc1ccc(-c2csc(NC(=O)c3cccc(S(=O)(=O)N4CCN(C)CC4)c3)n2)cc1 | 10%

The whole of this part, previewed entries included:
SMILES | HSD17B inh
COCCn1c(NCc2ccccc2)nc2c1c(=O)[nH]c(=O)n2C | -1%
CCOc1ccc(NC(=O)c2ccc(F)c(S(=O)(=O)N3CCN(c4ccccn4)CC3)c2)cc1 | 0%
CCCCc1ccc(S(=O)(=O)NCCc2ccncc2)cc1 | -1%
CCCS(=O)(=O)N1CCC(C(=O)c2cccc(C(F)(F)F)c2)CC1 | -4%
Cc1ccc(-c2csc(NC(=O)c3cccc(S(=O)(=O)N4CCN(C)CC4)c3)n2)cc1 | 10%
COc1ccc(-n2cnnc2SCC(=O)c2cc(C)n(Cc3cccs3)c2C)cc1 | -10%
O=C(NCc1ccco1)c1cc(-c2ccc(Cl)cc2)on1 | -20%
CCCCN(CC)S(=O)(=O)N1CCC(C(=O)NCc2ccc(F)cc2)CC1 | 2%
O=C(O)Cn1c(SCCOc2ccccc2)nc2ccccc21 | 2%
CNC(=O)NC1CCCCc2sccc21 (stereo not drawn) | -3%
Cc1ccc(CNC(=O)[C@H]2C[C@@H]2[C@H](NP(=O)(c2ccccc2)c2ccccc2)c2ccccc2)o1 | 1%
Cc1ccc(CN2C(=O)CCC2C(=O)NCc2ccc(F)cc2)cc1 (stereo not drawn) | -1%
CCSc1nc2ccccc2n1S(=O)(=O)c1ccccc1 | 0%
CCC(=O)Nc1cc(OC)c(NC(=O)c2ccccc2)cc1OC | -20%
COc1ccc(N2Cc3ccccc3C2)cc1Cl | -10%
CCCCOc1ccccc1C1C(C(=O)OC)=C(C)N(C)C(C)=C1C(=O)OC | -3%
COc1cc2c(cc1NC(=O)CC1SC(N3CCCC3)=NC1=O)oc1ccccc12 (stereo not drawn) | -13%
CCOC(=O)c1ccc(NS(=O)(=O)c2c(C)n(C)c(=O)n(C)c2=O)cc1 | 1%
CC1CCc2nn(CC(=O)Nc3c(F)cc(F)cc3Br)cc2C1 (stereo not drawn) | 2%
Cc1noc(C)c1COC(=O)CCN1c2ccccc2Sc2ccccc21 | -13%
Cc1ccc(C)c(C(=O)COC(=O)c2ccc(Br)o2)c1 | -8%
O=C(Nn1cnc2ccccc2c1=O)C1CCCCC1 | 3%
CCOc1ccc(CCNC(=O)CCn2cccc2)cc1OCC | -4%
COC(=O)C1=C(C)N=c2s/c(=C/c3ccoc3)c(=O)n2C1c1ccccc1 (stereo not drawn) | -30%
O=C(COc1cc(Cl)c(Cl)cc1Cl)Nn1cnnc1 | 1%

The list goes on, overlapping the part above by 6 compounds.
SMILES | HSD17B inh
Cc1noc(C)c1COC(=O)CCN1c2ccccc2Sc2ccccc21 | -13%
Cc1ccc(C)c(C(=O)COC(=O)c2ccc(Br)o2)c1 | -8%
O=C(Nn1cnc2ccccc2c1=O)C1CCCCC1 | 3%
CCOc1ccc(CCNC(=O)CCn2cccc2)cc1OCC | -4%
COC(=O)C1=C(C)N=c2s/c(=C/c3ccoc3)c(=O)n2C1c1ccccc1 (stereo not drawn) | -30%
O=C(COc1cc(Cl)c(Cl)cc1Cl)Nn1cnnc1 | 1%
CC(C)CCn1nnnc1C(c1ccccc1)N1CCN(C)CC1 (stereo not drawn) | -8%
O=c1c2ccccc2nnn1CSc1nnc(-c2cccs2)n1Cc1ccccc1 | -2%
CC(C)(C)NC(=O)CSc1nnc(C2CC2)n1Cc1ccccc1 | 4%
CCCC1COC(Cn2cncn2)(c2ccc(C)cc2)O1 (stereo not drawn) | -9%
Cn1c(Cn2c(=O)sc3ccccc32)nnc1SCc1ccccc1F | 0%
c1ccc(-c2nc(N3CCCCCC3)nc(-n3ccnc3)n2)cc1 | 12%
CCn1nnc(-c2ccccc2NC(=O)c2cccc(-n3cnnn3)c2)n1 | 32µM*
CC(C)n1c(SC2C(=O)CC(C)(C)CC2=O)nc2c1c(=O)n(C)c(=O)n2C | -5%
CCn1cc(C(=O)NCc2ccc3c(c2)OCO3)c(=O)c2cc(F)c(N3CCN(C)CC3)cc21 | -3%
COc1cccc(-n2nnc3c(=O)n(Cc4ccc(C)cc4)cnc32)c1 | 5%
COc1c(S(=O)(=O)N2CCCCC2)ccc2c(S(=O)(=O)N3CCCCC3)cccc12 | -17%
Cn1c(C(=O)NCCCN2CCN(c3ccc(F)cc3)CC2)cc2c(=O)n(C)c3ccccc3c21 | -13%
CC1=C(C(=O)Nc2ccccc2)C(c2ccco2)C(C#N)=C(SCC(=O)OC(C)C)N1 (stereo not drawn) | 18%
CC(C)(C)NC(=O)C1CCC(C)(C(=O)O)C1(C)C (stereo not drawn) | 3%
CCOC(=O)c1c(NC(=O)c2noc3c2CCCC3)sc(C)c1C | -24%
CC(=O)OC(C)(CCC(C)(OC(C)=O)C(C)=O)C(C)=O (stereo not drawn) | 6%
CN1CCC2(CC1)CCN(C(=O)c1cccc(F)c1)CC2 | 3%
CNC(=O)CN(c1cc(C)ccc1C)S(C)(=O)=O | 5%
CN(C)C(=O)c1ccc(-c2ccc3ncnc(N4CCC(C(=O)O)CC4)c3c2)cc1 | ?
C[C@@H]1/C=C\CC(=O)OC[C@H](C)C(=O)N[C@@H](Cc2ccccc2)C(=O)OC1 | 3%[11.4 µM]
COc1ccccc1CN1C(=O)CN(C2CCCC2)C(=O)C1c1ccc(F)cc1 (stereo not drawn) | -1%
Cc1cc2ncn(CC(O)COC3CCCCC3)c2cc1C (stereo not drawn) | 4%
C=CCNC(=O)CCNS(=O)(=O)c1ccc(Br)cc1 | 4%
CC(C)(C)c1cc(CN2CCN(CCO)CC2)cc(C(C)(C)C)c1O | -3%
CCOC(=O)CCn1c(CC(=O)OCC)nc2ccccc21 | 1%

(next part)
SMILES | HSD17B inh
CCCCCCN(C(=O)CCCCCN1C(=O)NC(c2ccc(-c3ccccc3)cc2)C(C(=O)OCc2ccccc2)=C1C)C(C(=O)NCCCC)c1ccc(O)c(C(=O)OC)c1 (stereo not drawn) | 32µM*
Cc1cc(C)c(C#N)c(SCCS(=O)(=O)Cc2ccccc2)n1 | -5%
O=C(CNC(=O)C12CC3CC(CC(C3)C1)C2)NC1=NCCS1 | 4%
Cn1nnnc1SCC(=O)N1CCN(Cc2ccccc2)CC1 | ?
COC(=O)c1ccc(C(NC(=O)OCc2ccccc2)/C(C)=C/[C@@H](C)C(=O)NCCc2c[nH]c3ccc(OC)cc23)cc1 (stereo partly drawn) | -4%
COc1ccc(-n2c(Cc3cccn3C)nnc2SCC(=O)NCC2CCCO2)cc1 (stereo not drawn) | -2%
CC(C)=CCC/C(C)=C/CO/N=C1/C[C@@H](O)[C@@H](O)[C@@H]2[C@@H]3C(=O)N(Cc4ccccc4)C(=O)[C@H]3CC[C@@H]12 | 5%[11.4 µM]
O=C(OC1CCCCC1=O)c1cc(=O)c2ccccc2o1 (stereo not drawn) | 9%
CN1CCN(c2ccccc2NC(=O)C(Cc2ccccc2)n2cccc2)CC1 (stereo not drawn) | ?
O=C(NCCN1CCOCC1)c1ccc(CS(=O)(=O)Cc2ccccc2F)o1 | 4%
CN1CCN(C2=C(Cl)C(=O)N(Cc3ccccc3)C2=O)CC1 | -1%
O=C(Nc1cccs1)Nc1ccccc1Cl | 25µM*
COc1cccc(-c2cc(N)nn2C(=O)Nc2ccc(Cl)cc2)c1 | -17%
Cc1ccc(S(=O)(=O)NCc2cn3c(C)csc3n2)cc1 | 4%
O=C(NO)c1ccc(C(=O)N(C2CCCCC2)C2CCCCC2)cc1 | -5%
Cc1cccc(-c2noc(CN(C(=O)c3ccc4c(c3)OCO4)C(C)C)n2)c1 | -21%
O=c1c2ccccc2c(C=NC2CCS(=O)(=O)C2)c(O)n1-c1ccccc1 (stereo not drawn) | 72%[activator]
CSc1nnc(Cc2ccc3c(c2)OCO3)o1 | -1%
CCN(CC)c1ccc(NC(=O)c2ccccc2F)cc1 | 1%
Cc1ccc(F)cc1NC(=O)C1CCCN(c2ncccn2)C1 (stereo not drawn) | -10%
CCCCC(=O)N(c1ccc(OCC)cc1)C1C=CS(=O)(=O)C1 (stereo not drawn) | -1%
N#Cc1cccc(-c2ccc3ncnc(NCCN4CCOCC4)c3c2)c1 | -3%
CCNc1ccc(C(=O)OCC)cc1NC(=O)c1cccc(N(C)C)c1 | 7%
Cc1c(C(=O)N2CCN(C(=O)c3ccco3)CC2)sc2nc(-c3ccc(F)cc3)cn12 | ?
Cc1cccc(CN2CCN([C@@H](c3ccccc3)c3ccc(Cl)cc3)CC2)c1 | -4%[25.6 µM]

Additional entries follow.
SMILES | HSD17B inh
COC(=O)c1cc2sccc2n1CC(=O)Nc1cccc(SC)c1 | -1%
COc1ccc2c(c1)O[C@@H]1c3ccc(OC)cc3OCC21 (stereo partly drawn) | 4%
Cc1cc(N2CCC(C)CC2)n2nc(C)c(-c3ccccc3)c2n1 | 16%
COC(=O)C(NC(=O)c1ccccc1)c1ccccc1 (stereo not drawn) | 0%
CCCc1nc2c3cnn(-c4cccc(Cl)c4)c3ncn2n1 | -20%
Cc1nc2ccc(C(=O)N3CCN(c4ccccn4)CC3)cc2s1 | 8%
Cc1ccc(C)c(Nc2ncnc3nc[nH]c23)c1 | ?
CC(=O)c1cccc(NC(=O)c2cc3nc(C)cc(C)n3n2)c1 | 32µM*
Cc1ccccc1Nc1nc(N)nc(CSc2nc3ccccc3c(=O)n2CCCO)n1 | 5%
O=C(CSCCO)N1CCc2ccccc21 | -5%
CCCCCCC(=O)N1CCC(c2nc3c(nnn3Cc3ccccc3Cl)c(=O)[nH]2)CC1 | 0%
N#CCSc1nc2cc(C(=O)N3CCCC3)ccc2c(=O)n1Cc1ccccc1 | 0%
c1csc(Cc2nn3c(-c4n[nH]c5c4CCC5)nnc3s2)c1 | -25%
O=[N+]([O-])c1ccc2ncccc2c1CCc1c([N+](=O)[O-])ccc2ncccc12 | 0%[11.4 µM]
O=C1Nc2ccccc2C(O)(C(=O)NCc2ccco2)N1c1ccc(Cl)cc1 (stereo not drawn) | 7%
COC(=O)[C@@]1(Cc2ccccc2)[C@H]2c3cc(C(=O)N4CCCC4)n(CCSCCO)c3C[C@H]2CN1C(=O)c1ccccc1 | 1%
CC1=C(C#N)C(NC(=O)C2CC2)(C(F)(F)F)C(=O)N1 (stereo not drawn) | ?
CC(C)(C)S(=O)(=O)c1c(C(=O)O)cccc1C(=O)O | 4%
CC(C)c1[nH]nc2c1C(Cc1ccccc1)C(C#N)=C(N)O2 (stereo not drawn) | 4%
Cc1nc2c(C(=O)N3CCCC3)c[nH]n2c(=O)c1Cc1ccc(F)cc1Cl | 4%
c1ccc([C@H]2NCCc3c2[nH]c2ccccc32)cc1 | 3%[11.4 µM]
NS(=O)(=O)c1cc(Br)c(N=Nc2ccc(O)c3ncccc23)c(Br)c1 | 12%[11.4 µM]
COc1ccc(OC)c(S(=O)(=O)N2CCC(C(=O)NCC3CCCO3)CC2)c1 (stereo not drawn) | 16%
Cc1cc(NC(=O)c2ccc3c(c2)C(=O)N(Cc2cccnc2)C3=O)no1 | 14%
COCCNC(=O)c1ccc(-n2c(=O)c(=O)[nH]c3ccccc32)cc1 | 1%

A different layout for part of the listing above:
canonical_smiles: Cc1cc(N2CCC(C)CC2)n2nc(C)c(-c3ccccc3)c2n1
  HSD17B inh: 16%
canonical_smiles: COC(=O)C(NC(=O)c1ccccc1)c1ccccc1 (stereo not drawn)
  HSD17B inh: 0%
canonical_smiles: CCCc1nc2c3cnn(-c4cccc(Cl)c4)c3ncn2n1
  HSD17B inh: -20%
canonical_smiles: Cc1nc2ccc(C(=O)N3CCN(c4ccccn4)CC3)cc2s1
  HSD17B inh: 8%

More structures follow.
SMILES | HSD17B inh
CCn1c(SCC(=O)N(Cc2ccccc2)C2CCS(=O)(=O)C2)nc2ccccc2c1=O (stereo not drawn) | -3%
CC(=O)c1c(C)nc2cc(Cl)ccc2c1N | 5%
O=S(=O)(NCC1CCCO1)c1cc(Cl)ccc1Br (stereo not drawn) | 0%
COc1cccc(OCCCN2CCCCC2)c1 | 5%
CC(c1ccccc1)n1c(-c2ccncc2)n[nH]c1=S (stereo not drawn) | -5%
CC1CCN(C(=O)c2cc(-c3ccc(Cl)c(Cl)c3)on2)CC1 | -9%
O=C(c1ccc2c(c1)N(Cc1ccccc1)C(=O)CS2)N1CCOCC1 | 0%
CCc1nc(SCC(=O)NCC2CCCO2)c2oc3ccccc3c2n1 (stereo not drawn) | -9%
CCOC(=O)c1c(C)[nH]c(C(=O)C(C)OC(=O)c2cccc(OCc3c(C)noc3C)c2)c1C (stereo not drawn) | -3%
Cc1cc(N2CCN(C3CCCCC3)CC2)n2nc(C)nc2n1 | 4%
O=C(/C=C/c1ccccc1)N1CCCC1CO (stereo not drawn) | 2%[11.4 µM]
Cc1cc(S(=O)(=O)n2cnc3ccccc32)c(C)cc1Cl | 11%
O=C(CN1CCC(n2nnc3cc(F)ccc32)CC1)NC1CC1 | -8%
CCC(=O)Nc1cccc(Br)c1 | 5%
O=C(NCc1ccccc1)C1CCCN(S(=O)(=O)c2cccnc2)C1 (stereo not drawn) | 7%
Cc1c(C#N)c2ncn(Cc3ccccc3)c(=O)c2n1-c1ccccc1 | 1%
